# Source: PubChem
# Mtb bLac sens: beta-lactam sensitization of Mtb H37Rv | M. tuberculosis H37Rv growth with meropenem, percent inhibition; hits of this screen are not shown here | inhibition, % at 25 µM | 0.27% of 330,000 active | AID 434955;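 active = about 74% or more and at least 40 points above the plate without the antibiotic, then above 30% in a dose series; inconclusive = first-round hits that could not be retested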;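 note: growth measured after seven days incubation then overnight dye step; 0% = bacteria only wells and 100% = bacteria with antibiotic; twin plates without the antibiotic show which effects depend on it; some results filed as inactive read as strong as hits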
# YopH PTP inh: blocks Yersinia enterocolitica YopH tyrosine phosphatase. AID 898. 0.16% of 140,000 active. inhibition, %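 (about 10 µM by stock and volumes)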. fluorescence Ex485/Em525;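 active = inhibition of 50% or more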;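 note: controls were vehicle for no effect and minimum signal wells for full effect; inactives centre near -20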
# Mtb H37Rv: M. tuberculosis H37Rv growth inhibitors, H37Rv strain (AID 1626). M. tuberculosis H37Rv growth inhibition; higher % means a stronger effect. inhibition, % at 10 µM; hits with a dose series show IC50 in µM. 0.95% of 220,000 active;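 active = confirmed in a dose series; inconclusive = inhibition above 80% but not taken into the dose series; inactive = below 80% or under 30% at every dose of the series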;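 note: bacteria incubated seven days before Alamar blue readout; 0% = bacteria only wells and 100% = bacteria with antibiotic wells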
# Arbovirus inh: arbovirus infection inhibition | arbovirus infection cell-based antiviral screen | inhibition, % at 10 µM | 0.37% of 200,000 active | AID 1251;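 active = inhibition from about 30%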;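 note: bluetongue infection of BSR cells; cell survival read as ATP light after 72 h; 0% = infected wells without compound and 100% = uninfected wells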
# RecA intein inh: inhibitors of M. tuberculosis RecA intein splicing; cell-free RecA intein splicing, fluorescence; inhibition, %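 (about 9 µM by stock and volumes)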; 0.75% of 290,000 active; in the data active = inhibition above about 30%; inconclusive = no clear call, values can overlap the other calls;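 note: 0% = vehicle wells and 100% = reference inhibitor control wells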
# Target sequence (P9WHJ3 whole entry, looked up): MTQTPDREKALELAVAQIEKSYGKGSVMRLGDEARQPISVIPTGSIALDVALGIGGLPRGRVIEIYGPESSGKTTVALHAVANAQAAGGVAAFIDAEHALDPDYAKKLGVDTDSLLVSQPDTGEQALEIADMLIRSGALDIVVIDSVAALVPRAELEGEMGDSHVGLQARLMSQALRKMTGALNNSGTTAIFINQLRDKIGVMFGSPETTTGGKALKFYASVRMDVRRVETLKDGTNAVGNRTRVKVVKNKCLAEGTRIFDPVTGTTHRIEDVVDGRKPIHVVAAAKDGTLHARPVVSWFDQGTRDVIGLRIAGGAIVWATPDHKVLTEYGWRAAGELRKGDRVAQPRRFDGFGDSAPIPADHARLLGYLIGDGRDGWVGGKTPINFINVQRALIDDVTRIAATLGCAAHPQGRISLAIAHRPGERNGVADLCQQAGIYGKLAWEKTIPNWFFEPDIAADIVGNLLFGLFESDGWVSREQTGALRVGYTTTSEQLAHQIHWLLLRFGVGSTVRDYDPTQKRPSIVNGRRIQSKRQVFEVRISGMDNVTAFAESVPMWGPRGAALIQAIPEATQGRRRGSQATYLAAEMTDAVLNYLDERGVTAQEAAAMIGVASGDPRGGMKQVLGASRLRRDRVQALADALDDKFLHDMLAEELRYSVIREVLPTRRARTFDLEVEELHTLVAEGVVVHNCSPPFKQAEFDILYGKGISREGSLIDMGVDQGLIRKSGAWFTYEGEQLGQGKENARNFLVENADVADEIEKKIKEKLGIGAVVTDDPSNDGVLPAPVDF
# Arbovirus inh repeat: also measured in Arbovirus inh; calls as there; inhibition, %; measured here: 10K subset replicate screen; many hits read low in the repeat;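 first of two repeat runs on a subset; 0% = infected and 100% = uninfected wells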
# Starred values were filed as active, the others as inactive; ? = inconclusive; . = no result given.
SMILES,Mtb bLac sens,YopH PTP inh,Mtb H37Rv,Arbovirus inh,RecA intein inh,others
COc1ccc(CCNC(=O)c2cc(C)oc2C)cc1OC,-3,.,.,.,-0.2,
COc1ccc(CCC(=O)Nc2ccc(N3CCOCC3)cc2)cc1,-8,-20,0%,-2,-1.0,
COc1ccc(NC(=O)CSc2nc3sc(C)c(C)c3c(=O)n2Cc2ccco2)cc1,?,-28,11%,6,0.8,
COc1cc(/C=N/N2C(=O)CSC2=S)ccc1O,-2,-16,-25%,0,-0.4,
Cc1ccc(C(=O)C(C)[n+]2cccc(C(N)=O)c2)cc1 (centres undefined),1,.,2%,0,.,
Cc1ccc2c(c1)CCCN2C(=O)c1cccs1,.,-26,4%,-14,1.7,
CCC(C)NC(=O)C1CCN(S(=O)(=O)c2cccs2)CC1 (centres undefined),?,-11,0%,14,-11,
CCCNC(=O)Nc1ccc(NC(C)=O)cc1,-1,.,0%,4,-1.2,
CCOC(=O)c1c(C)[nH]c(C(=O)Nc2ccc(C)c(Cl)c2)c1C,0,-26,1%,1,2.3,
COc1cc(OC)c(OC)cc1CNCCNC(=O)c1nonc1N,5,-48,0%,1,3.2,
Cc1nc2ccccn2c1-c1csc(NCc2ccco2)n1,8,-9,8%,9,6.3,
COc1ccc(CNC(=O)CCCn2c(=S)[nH]c3cc4c(cc3c2=O)OCO4)cc1,4,.,.,.,-1.4,
COc1ccc(OCC(=O)Nc2c(C)ccc3nsnc23)cc1,6,.,.,.,3.1,
CCOc1ccc2oc(C(=O)Nc3cc(C)ccn3)c(C)c2c1,1,.,.,.,-1.6,
CSc1ccccc1-c1nc(-c2ccncc2)no1,8,.,.,.,1.1,
O=C(c1cc([N+](=O)[O-])ccc1N1CCNCC1)N1CCOCC1,7,-25,-5%,0,-2.4,
Cc1cccc(CCNC(=O)c2cccc3c2C(=O)N(C2CCCCC2)C3)c1,21,.,.,.,2.3,
CC(=O)N1CCN(S(=O)(=O)c2cccc(C(=O)Nc3cc(C(F)(F)F)ccc3N3CCOCC3)c2)CC1,-12,.,.,.,5.4,
Cc1cccc(OCCC(=O)Nc2ccc(F)c(Cl)c2)c1,10,-15,39%,-2,1.2,
CCN1CCN(c2ccc(NC(=O)CCc3c(C)nc4c(-c5ccc(F)cc5)c(C)nn4c3C)cc2)CC1,95,.,11%,-24,-1.3,
c1ccc(CSc2nnc3ccc(-c4cccs4)nn23)nc1,-3,.,-4%,5,1.0,
Cc1ccccc1OCC(=O)N1N=C(c2cccnc2)CC1(O)C(F)(F)F (centres undefined),-1,-28,0%,7,-3.9,
C#CCOCCOCCOCCNc1nc(N2CCN(C(=O)C([C@@H](C)CC)n3cc(C(N)COC(=O)C(F)(F)F)nn3)CC2)nc(N2CCN(C(=O)[C@H](CCCCN)n3cc(C(N)CC(C)C)nn3)CC2)n1 (some centres undefined),-6,.,-12%,.,-0.1,
O=C(O)c1cccnc1Nc1ccc(Cl)cc1,3,.,-4%,19,1.8,
CCN1C(=O)[C@H]2[C@@H](c3ccc(C)cc3)N3C(=O)N(c4cccc(F)c4)C(=O)[C@@]3(C)[C@H]2C1=O,-7,.,.,.,-2.3,
CN(C)CCOC(C1CCCCC1)C1CCCCC1,?,-15,-3%,21,3.1,
O=C(COc1coc(CN2CCN(c3ccccc3)CC2)cc1=O)NCC1CCCO1 (centres undefined),-1,.,.,.,-1.2,
COc1ccc(-c2csc(NC(=O)CC(NC(C)=O)c3ccccc3)n2)cc1OC (centres undefined),-9,.,.,.,0.0,
Cc1ncc(CN2CCC(CO)(CCc3ccccc3)CC2)s1,-7,.,5%,6,-0.3,
CSCC[C@H](NC(=O)c1nn(C)c(=O)c2ccccc12)c1nc2ccccc2[nH]1,-1,-32,0%,3,1.2,
COC(=O)c1sccc1-c1ccc(/C=N/OCc2c(Cl)cccc2Cl)o1,-12,-35,-8%,2,0.7,
CCC1C(=O)N=C(SCC(=O)Nc2ccc(C)cc2)N(c2ccccc2)C1=O (centres undefined),4,.,.,.,-2.8,
CC(=O)c1sc(NC(=O)C2CSC3(C)CCC(=O)N23)nc1-c1ccccc1 (centres undefined),-11,.,.,.,1.5,
Cc1ccc(/C=N/Nc2cccc(C(=O)O)c2)s1,-3,-24,-7%,-1,-6.7,
CC(=O)Nc1cccc(C(=O)OCC(=O)Nc2nnc(-c3ccccc3)o2)c1,-6,.,.,.,-1.7,
c1csc(CCNc2ncnc3sc4c(c23)CCC4)c1,6,-3,10%,25,4.8,Arbovirus inh repeat=11
O=C(c1cc(Cl)c(=O)n(Cc2ccccc2)c1)N1CCOCC1,-4,-20,-2%,6,-1.4,
COc1ccc(C2(O)CCN(CC(=O)Nc3nc(-c4ccccc4)cs3)CC2)cc1,99,.,?,-11,5.2,
CCOC(=O)N1CCN(C(=O)c2ccc(-n3c(C)ccc3C)cc2)CC1,1,-11,4%,5,3.1,
Cc1ccc(C)c(NC(=O)c2cnc3n(c2=O)CCS3)c1,-5,.,8%,3,0.1,
C=CCOc1ccc(C2/C(=C(\O)c3c(C)[nH]c(C(=O)OC)c3C)C(=O)C(=O)N2CCN(C)C)cc1 (centres undefined),15,-35,-2%,3,-0.6,
O=C(O)C1CSC(c2coc3ccccc3c2=O)N1 (centres undefined),7,-22,4%,9,-9.5,
O=C(CCCn1c(=S)[nH]c2ccsc2c1=O)NCCc1ccccc1,0,.,.,.,-7.4,
CCN(CC)C(=O)CN1CCC(n2c(C)nc3cc(C(F)(F)F)ccc32)CC1,-6,-6,-6%,0,1.7,
CN1C(=O)c2ccc(N(C)C)cc2C1=O,2,14,-7%,8,9.6,
C=CCN(Cc1nc(-c2ccccc2)no1)C(=O)c1ccoc1C,-3,.,.,.,3.8,
C=CCn1c(SCc2csc(C)n2)nc2scc(-c3ccc(C)o3)c2c1=O,45,-11,1%,-8,2.8,
CN1CCc2c1nc1ccccc1c2N (tested in a mixture with another compound),4,.,.,.,-1.0,
Cc1cc2ccccc2n2c(SCC(=O)N3CCOCC3)nnc12,-6,.,-5%,5,1.8,
Cc1cccc(-n2c(SCCC(=O)O)nnc2-c2cccs2)c1C,-13,-25,-8%,6,2.6,
COC(=O)c1cc(OC)c(OC)cc1NC(=O)CCc1ccc(C)o1,43,20,-2%,0,1.8,
Cc1ccc(C)c(OCc2cc(C(=O)N3C[C@H]4C[C@@H](C3)c3cccc(=O)n3C4)no2)c1,-2,.,.,.,0.3,
CCCc1nnc(SCC(=O)N2CCCC(C)C2)n1CC1CCCO1 (centres undefined),-7,8,-6%,16,0.1,
O=c1c2ccccc2oc2nc(-c3cccs3)n(CCc3ccccc3)c(=O)c12,-6,-1,-3%,-13,-0.4,
CN(CC(=O)Nc1ccc(Cl)cc1)CC(=O)Nc1cc(Cl)ccc1C#N,16,-40,-1%,6,7.7,
Cc1cc(C(F)(F)F)n2nc(-c3cnn(C)c3C(F)(F)F)c(Br)c2n1,-1,.,70%,-7,0.8,
O=C(CSc1ccc(-c2ccccn2)nn1)Nc1ccccc1,100,.,.,.,2.5,
CC(=O)Nn1c(-c2ccccc2)cc2ccccc21,64,-37,4%,11,1.7,
CCOC(=O)C1=C(C)NC(C)=C(C(=O)OCC)C1c1cn(-c2ccccc2)nc1-c1ccco1,0,-21,0%,-22,-2.2,
CCOC(=O)C1(Cc2cccc(OC)c2)CCCN(Cc2nccn2CC)C1 (centres undefined),9,.,-1%,11,1.1,

# Reprinted at random: 7 entries already listed, in no set order.
SMILES,Mtb bLac sens,YopH PTP inh,Mtb H37Rv,Arbovirus inh,RecA intein inh,others
CCOC(=O)N1CCN(C(=O)c2ccc(-n3c(C)ccc3C)cc2)CC1,1,-11,4%,5,3.1,
CCCc1nnc(SCC(=O)N2CCCC(C)C2)n1CC1CCCO1 (centres undefined),-7,8,-6%,16,0.1,
COc1cc(/C=N/N2C(=O)CSC2=S)ccc1O,-2,-16,-25%,0,-0.4,
COc1ccc(C2(O)CCN(CC(=O)Nc3nc(-c4ccccc4)cs3)CC2)cc1,99,.,?,-11,5.2,
C#CCOCCOCCOCCNc1nc(N2CCN(C(=O)C([C@@H](C)CC)n3cc(C(N)COC(=O)C(F)(F)F)nn3)CC2)nc(N2CCN(C(=O)[C@H](CCCCN)n3cc(C(N)CC(C)C)nn3)CC2)n1 (some centres undefined),-6,.,-12%,.,-0.1,
Cc1cc(C(F)(F)F)n2nc(-c3cnn(C)c3C(F)(F)F)c(Br)c2n1,-1,.,70%,-7,0.8,
CSCC[C@H](NC(=O)c1nn(C)c(=O)c2ccccc12)c1nc2ccccc2[nH]1,-1,-32,0%,3,1.2,

# (listing goes on)
SMILES,Mtb bLac sens,YopH PTP inh,Mtb H37Rv,Arbovirus inh,RecA intein inh,others
CC(=O)Nc1c(O)nc(SCC(=O)Nc2ccc(C(C)=O)cc2)[nH]c1=O,50,5,-6%,3,-0.4,
CCC(C)(C(=O)NC1CCCC1)N(CC1CCCO1)C(=O)c1ccc2c(c1)OCO2 (centres undefined),?,-33,4%,4,-3.5,
Cn1cccc1C(=O)NC(=O)COC(=O)c1cc([N+](=O)[O-])ccc1Cl,51,.,2%,-2,-2.8,
Cn1cc(/C=N/n2cnc3scc(-c4ccccc4)c3c2=O)c2ccccc21,-1,-28,7%,-22,0.5,
O=C(CSc1nnc(CNC(=O)c2cccc(C(F)(F)F)c2)o1)NC1CCCCC1,?,.,.,.,1.9,
Cc1ccc2nc(N3C(=O)C(O)=C(C(=O)c4ccco4)C3c3cccs3)sc2c1 (centres undefined),12,-26,-1%,10,7.6,
CS(=O)(=O)N(CCc1ccccc1)CC(=O)N1CCN(Cc2ccccc2)CC1,-6,-1,6%,-2,.,
C=CCNC(=O)/C=C/c1c(F)cccc1Cl,10,-13,-4%,-8,0.4,
O=C(CCNS(=O)(=O)c1cccc2nonc12)NC1CCCCC1,-4,.,1%,-2,.,
Cc1cccc2sc(NC(=O)C3CC3)nc12,13,.,.,.,3.6,
CCOc1ccc(N2C(=O)/C(=C/c3cccs3)N(CC(=O)OC)C2=S)cc1,3,-19,1%,-5,0.8,
Cc1cccc(Nc2nc3c(s2)CCCC3)c1,-5,-44,16%,9,2.1,
CCc1ccccc1NC(=S)N1CCN(c2cccc(OC)c2)CC1,2,.,.,.,-0.8,
COc1ccc(-c2cc(=O)oc3cc(OC(=O)C4CCCCC4)c(Cl)cc23)cc1,3,-42,-3%,-22,-192,
COc1ccc(CCN2C(=NC(=O)CC(C)C)SC3CS(=O)(=O)CC32)cc1OC (centres undefined),-12,.,7%,.,1.5,
O=C(NCC1CC1)[C@@H]1C[C@H]1[C@@H](NP(=O)(c1ccccc1)c1ccccc1)c1ccccc1,-9,-20,-5%,-7,0.9,
CCOc1cc(Br)c(CC(=O)NC2CCCCCC2)cc1OCC,2,.,.,.,3.2,
Oc1cc2c(cc1CN1CCN(c3ccccc3)CC1)CCC2,-10,-45,-4%,-2,-0.9,
CN1C(=O)c2ccc(NC(=O)CCS(=O)(=O)c3ccccc3)cc2C1=O,-8,.,-7%,-2,-2.9,
COc1ccccc1/C=N/OC(=O)c1ccc(F)cc1,14,.,19%,6,0.1,
O=C(COC(=O)C1CC(=O)N(Cc2ccccc2)C1)Nc1ccc(Cl)cc1F (centres undefined),7,.,-5%,-1,-7.8,
CC(C(=O)Nc1ccc(O)cc1C(=O)O)N1C(=O)/C(=C\c2cccs2)SC1=S (centres undefined),1,.,.,.,29,
COC(=O)c1c(NC(=O)c2cccnc2Cl)sc(C(=O)N(C)C)c1C,-3,-7,1%,0,0.4,
O=C(CN1CCCN(S(=O)(=O)c2ccc(Br)cc2)CC1)Nc1ccc2cn[nH]c2c1,.,-110,0%,.,7.4,
COc1ccc(-c2nnc(SCC(=O)Nc3ccc(C(=O)O)cc3)n2-c2ccc(Cl)cc2)cc1,-7,.,.,.,2.2,
CC(C)=C1C2CCC1C(C(=O)Nc1cc(C)cc(C)c1)C2C(=O)O (centres undefined),5,.,2%,1,7.8,
CC1(OC(=O)c2ccc(Cl)nc2)C(=O)C=C2C=C(c3ccc(C#N)cc3)OC=C2C1=O (centres undefined),4,.,1%,.,0.0,
C=CCNC(=O)c1ccc2c(=O)n(CCCN3CCCC3=O)c(=S)[nH]c2c1,1,.,0%,6,-0.2,
CCCC(=O)Nc1cc(S(=O)(=O)N(CC)CC)ccc1Cl,-4,-10,4%,1,2.4,
O=C(/C=C/NNC(=O)c1ccccc1O)c1ccccc1,8,.,.,.,3.2,
COc1cc(C2C(C(=O)OC(C)C)=C(C)Nc3ncnn32)cc(OC)c1OC (centres undefined),6,.,1%,10,1.6,Arbovirus inh repeat=-2
CC1(C)CC(=O)C2=C(C1)OC1=C(C(=O)CC(C)(C)C1)C2(C)C,7,-13,-4%,12,-3.0,
CC(C)C(NC(=O)c1ccc(C(C)(C)C)cc1)C(=O)NCC1(N(C)C)CCCCC1 (centres undefined),-4,.,.,.,0.9,

# The list is partial; rates above refer to the full screens.
